# Screens from PubChem.
# CBX7 AlphaScr = inhibitors of human CBX7 binding to H3K27me3 peptide; O95931; AlphaScreen His6-CBX7 / biotin-H3K27me3 peptide binding; hits give low values; AID 1224903; actives 1.1% (n = 66,000); normalised signal (fraction of DMSO) (test concentration not listed); in the data active = normalised signal below about 0.5;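 note: 100 nL library stock added to about 20 µL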
# Target sequence (O95931 whole entry, looked up): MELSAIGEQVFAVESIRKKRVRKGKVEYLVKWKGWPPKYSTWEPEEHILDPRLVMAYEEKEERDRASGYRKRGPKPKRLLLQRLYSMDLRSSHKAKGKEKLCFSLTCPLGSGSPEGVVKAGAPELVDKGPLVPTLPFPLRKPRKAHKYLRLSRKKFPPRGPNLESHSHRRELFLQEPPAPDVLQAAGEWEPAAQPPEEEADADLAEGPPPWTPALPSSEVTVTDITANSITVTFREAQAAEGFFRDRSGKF
# CBX7 AlphaScr z-score = second read-out of CBX7 AlphaScr, no call of its own (marks repeat the call); z-score; measured here: z-score of CBX7 signal; some inactives read as strong as hits; reference of the scale not given here;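 same signal on another scale; lower means less binding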
# The depositor's hits bear a star; & = joins results of further samples.
SMILES,CBX7 AlphaScr,CBX7 AlphaScr z-score
CC(=O)c1nn(-c2cccc(Cl)c2)cc1C(=O)c1ccco1,1.06,0.604
Cc1ccccc1NC(=O)C1CCCN1S(=O)(=O)c1ccc2c(c1)CCC(=O)N2 (configuration not stated),1.16,2.91
CCOC(=O)c1ccc(NC(=O)Cn2nnc(-c3ccc(F)cc3)n2)cc1,0.894,-0.144
CCOC(=O)c1c(NC(=O)COc2ccc(CC)cc2)sc2c1CCCC2,1.16,6.73
Cc1ncc(CCCCN(C)C)c2c1[nH]c1ccccc12,1.09,1.2
O=C(Nc1ccc(F)cc1F)c1cn(-c2ccc(Cl)cc2)c(=O)c2ccccc12,1.02,0.527
CC(C)Cc1ccc(C(C)C(=O)Nc2ccc(Br)cn2)cc1 (configuration not stated),1.18,1.79
COc1cccc(-c2ncnn2-c2cccc(Cl)c2C)c1,0.812,-2.59
Cc1ccc(C(=O)Nc2cccc(-c3nc4ccccc4o3)c2)c(Cl)c1,1.09,0.871
COCC(C)NC(=O)c1cc(-c2ccc(OC)cc2)on1 (configuration not stated),1.07,1.6
COc1cc2c(C(=O)N3CCC4(CC3)OCCO4)cn(CC(C)C)c(=O)c2cc1OC,1.02,0.82
CC1(C(=O)NC2CCCCC2)CCC(=O)N1Cc1ccc2c(c1)OCO2 (configuration not stated),1.01,0.267
CCOC(=O)CCc1c(C)nc2c(c(C)nn2-c2ccc(C)cc2)c1C,1.16,1.9
Cc1csc2ncc(C(=O)Nc3cccc(F)c3)c(=O)n12,1.04,1.29
Cc1cccc(-c2cc(C(=O)NCc3ccc(S(N)(=O)=O)cc3)c3ccccc3n2)c1,1.06,1.61
Cc1ccc2nc(-c3ccc(NC(=O)c4ccc(Cl)cc4)cc3)oc2c1,1.08,1.2
CCCc1nn(-c2cc(Cl)ccc2OC)c2c1C(=O)CC(c1ccccc1)C2 (configuration not stated),1.04,0.8
Cc1ccc(C(=O)Nc2sc3c(c2C(=O)N2CCC(C)CC2)CCC(C)C3)cc1 (configuration not stated),1.02,0.638
CCCOc1ccc(C(=O)Nc2c(C(=O)c3ccccc3)oc3ccccc23)cc1,1.31,1.35
CCOc1ccc(CCNC(=O)CN2CCN(Cc3ccc(F)cc3Cl)C2=O)cc1OCC,0.955,-0.949
CCOc1ccc(CCNC(=O)CN2C(=O)CCSc3ccccc32)cc1,1.01,0.408
Cc1cc2cc(CCNC(=O)C(C)(C)C)c(=O)[nH]c2cc1C,1.02,0.885
COCCCNC(=O)c1ccc2c(c1)nc(C)n2-c1ccc(F)c(F)c1,1.03,1.38
COc1cccc(CNC(=O)c2ccc3c(c2)NC(=O)c2ccccc2N3)c1,1.11,0.846
COc1ccc(-n2nnc3c(=O)n(CC(=O)NCc4ccc5c(c4)OCO5)cnc32)cc1,0.908,-1.76
O=C(Nc1nc2ccc(F)cc2s1)c1ccc(S(=O)(=O)N2CCCCC2)cc1,1.05,1.58
C=CCc1ccccc1OCC(O)CN1C(C)CCCC1C (configuration not stated),1.02,0.249
CC1(C(=O)NC2CCCCCCC2)CCC(=O)N1Cc1ccc(F)cc1Cl (configuration not stated),0.939,-1.21
COc1cc2c(C(=O)NCc3ccc(F)cc3)cn(C)c(=O)c2cc1OC,1.18,2.53
COc1ccc(OC)c(CCNC(=O)c2cc3c(s2)-c2ccccc2OC3)c1,1.01,0.146
O=C(C1CC(c2ccc(F)cc2)=NO1)N1CCCCC1 (configuration not stated),1.02,1.06
N#Cc1ccccc1NC1c2ccccc2C(=O)N1c1ccc(Cl)cn1 (configuration not stated),0.889,-2.99
Cn1nc(-c2ccc(C(=O)NC3CCCCC3)cc2)c2ccccc2c1=O,1.01,0.331
COc1ccc(C(=O)N2CC(=O)Nc3ccc(Br)cc3C2c2ccccc2)cc1 (configuration not stated),0.902,-2.5
CCc1ccc(NS(=O)(=O)c2ccc3[nH]cc(C(=O)NCCCOC(C)C)c(=O)c3c2)cc1,1.2,2.47
CCN(CCNC(=O)C1CCN(Cc2nc(-c3ccc(Cl)cc3)oc2C)CC1)c1ccccc1,0.865,-1.15
CCOC(=O)c1ccc(NC(=O)CSc2nnc(-c3ccncc3)n2-c2ccccc2)cc1,1.01,0.159
COc1cccc(N2C(=O)C(CC(=O)Nc3ccccc3)N(Cc3ccc4c(c3)OCO4)C2=O)c1 (configuration not stated),1.48,2.06
Cc1cc(OCCCc2c(C)n[nH]c2C)cc(C)c1Cl,0.947,-2.72
Cc1cccc2c1-c1sc(C(=O)NCCCN3CCOCC3)cc1CO2,1.08,2.7

# Given bar-delimited: part of the list above
structure | CBX7 AlphaScr | CBX7 AlphaScr z-score
O=C(Nc1nc2ccc(F)cc2s1)c1ccc(S(=O)(=O)N2CCCCC2)cc1 | 1.05 | 1.58
C=CCc1ccccc1OCC(O)CN1C(C)CCCC1C (configuration not stated) | 1.02 | 0.249
CC1(C(=O)NC2CCCCCCC2)CCC(=O)N1Cc1ccc(F)cc1Cl (configuration not stated) | 0.939 | -1.21
COc1cc2c(C(=O)NCc3ccc(F)cc3)cn(C)c(=O)c2cc1OC | 1.18 | 2.53
COc1ccc(OC)c(CCNC(=O)c2cc3c(s2)-c2ccccc2OC3)c1 | 1.01 | 0.146
O=C(C1CC(c2ccc(F)cc2)=NO1)N1CCCCC1 (configuration not stated) | 1.02 | 1.06
N#Cc1ccccc1NC1c2ccccc2C(=O)N1c1ccc(Cl)cn1 (configuration not stated) | 0.889 | -2.99
Cn1nc(-c2ccc(C(=O)NC3CCCCC3)cc2)c2ccccc2c1=O | 1.01 | 0.331
COc1ccc(C(=O)N2CC(=O)Nc3ccc(Br)cc3C2c2ccccc2)cc1 (configuration not stated) | 0.902 | -2.5
CCc1ccc(NS(=O)(=O)c2ccc3[nH]cc(C(=O)NCCCOC(C)C)c(=O)c3c2)cc1 | 1.2 | 2.47
CCN(CCNC(=O)C1CCN(Cc2nc(-c3ccc(Cl)cc3)oc2C)CC1)c1ccccc1 | 0.865 | -1.15
CCOC(=O)c1ccc(NC(=O)CSc2nnc(-c3ccncc3)n2-c2ccccc2)cc1 | 1.01 | 0.159
COc1cccc(N2C(=O)C(CC(=O)Nc3ccccc3)N(Cc3ccc4c(c3)OCO4)C2=O)c1 (configuration not stated) | 1.48 | 2.06
Cc1cc(OCCCc2c(C)n[nH]c2C)cc(C)c1Cl | 0.947 | -2.72
Cc1cccc2c1-c1sc(C(=O)NCCCN3CCOCC3)cc1CO2 | 1.08 | 2.7

# (more compounds)
SMILES,CBX7 AlphaScr,CBX7 AlphaScr z-score
CCC1CCCCN1CCCNC(=O)CCN1C(=O)COc2ccccc21 (configuration not stated),1.08,2.47
CCN(CCCNC(=O)c1ccc2c(c1)NC(=O)CS2)c1cccc(C)c1,1.04,0.791
CCOc1cccc(-c2cc(C(=O)Nc3ccon3)c3ccccc3n2)c1,0.919,-2.38
CCN(CC)CCCNc1oc(-c2ccc(OC)cc2)nc1C#N,1.01,0.202
Brc1ccccc1-c1nnc(-c2ccncc2)o1,0.969,-0.435
COc1ccccc1NS(=O)(=O)c1c(C)sc2nc[nH]c(=O)c12,0.987,-0.177
Clc1cccc(CSc2nnc(-c3ccc(Cl)cc3Cl)o2)c1,0.879,-1.31
Cc1cccc(C(=O)NCCc2cc3c(C)ccc(C)c3[nH]c2=O)c1,1.08,1.23
COc1ccc(Cn2c(CCC(=O)O)nc3cccnc32)cc1,1.03,1.09
O=C(O)c1ccccc1C(=O)n1c(Cc2ccccc2)nc2ccccc21,0.957,-1.01
COc1ccc(C(=O)NCCc2cc3ccc(OC)cc3[nH]c2=O)cc1,0.991,-0.306
CCN1CCN(c2cc(C)c3cc(NC(=O)CCC(=O)NCCC4=CCCCC4)ccc3n2)CC1,1.09,3.69
O=C(NCc1cccs1)c1cc(-c2ccccc2)nc2ccccc12,0.983,-0.0347
O=S(=O)(Nc1ccc(C(F)(F)F)cc1)c1cnc[nH]1,1.01,0.136
O=C(NCCCN1CCOCC1)c1cc(-c2ccc(O)cc2)on1,1,0.0173
Cc1ccc(-c2noc(-c3ccc(C)cc3)n2)cc1,1.16,5.2
CCCCNC(=O)c1nn2c(C(F)(F)F)cc(-c3cccs3)nc2c1Cl,1.04,1.48
CCCCCCCc1ccc(-c2nc(-c3ccc(Br)cc3)no2)cc1,0.894,-1.16
COc1ccc(-c2nc(C(=O)NCc3ccc(C)cc3)c(C)o2)cc1,0.964,-1.69
CCCCNC(=O)C1CC(c2cc(OC)ccc2OC)=NO1 (configuration not stated),0.995,-0.169
CCOCCCNC(=O)c1cnc(Nc2ccccc2OC)c2ccccc12,1.14,2.67
CCOC(=O)CC(NCc1cccc(OCc2ccccc2)c1)c1ccc(F)cc1 (configuration not stated),1.03,0.0302
CCCCOc1ccc(N2C(=O)CC(N3CCC(C(N)=O)CC3)C2=O)cc1 (configuration not stated),1.01,0.32
Cc1cccc(NC(=O)CSc2nnc(Cc3cc(=O)[nH]c(=O)[nH]3)n2-c2ccc(F)cc2)c1C,0.996,-0.103
CCC1=Nc2cc(C(=O)NCCN(CC)CC)ccc2Sc2ccccc21,1.03,0.378
Cc1ccc(NC(=O)c2sc(-c3ccccc3)nc2C)cc1,1.07,0.183
O=C1CN2C(=N1)N(Cc1ccccc1Cl)c1ccccc12,0.913,-0.915
CCOc1ccc(S(=O)(=O)NCCc2c(C)[nH]c3ccccc23)c2ccccc12,0.708,-2.8
Fc1ccc(Nc2c3c(nc4ccc(Cl)cc24)CCC3)c(F)c1,1.08,0.352
CCC1=Nc2cc(C(=O)N3CCC4(CC3)OCCO4)ccc2Sc2ccc(Cl)cc21,0.905,-4.52
COc1ccc(-c2nc3ccccc3n2Cc2ccccc2)cc1,1,0.166
COC(=O)CN(c1ccc(C)cc1)S(=O)(=O)c1ccc2c(c1)n(C)c(=O)c(=O)n2C,1.01,0.335
CC1=C(C(=O)Nc2cc(C)ccn2)C(c2ccc(Br)cc2)C2=C(CC(C)(C)CC2=O)N1 (configuration not stated),1.13,1.37
COc1ccc(-c2noc(CCC(=O)Nc3ccc(Br)cc3C)n2)cc1,1.08,2.29
COc1ccc(NC(=O)CCc2c(C)nc3c(-c4ccc(F)cc4)c(C)nn3c2C)cc1,1.01,0.315
COc1ccc(C(=O)Nc2ccccc2-c2nc3ccccc3s2)cc1OC,1.33,6.43
CN1c2ccccc2Oc2nnc(N3CCN(c4ccc(F)cc4)CC3)cc21,0.965&0.94,-0.957&-1.19
CCC1Oc2ccc(Cl)cc2N(CC(=O)NCCc2ccccc2)C1=O (configuration not stated),1.59,1.2
CCOC(=O)c1cccc(NC(=O)Cn2ncc3c2-c2ccccc2OC3)c1,0.924,-2.18
CCCCn1c(C2CC(=O)N(c3cccc(C)c3C)C2)nc2ccccc21 (configuration not stated),1.03,0.185
Cc1cc(C)cc(NC(=O)CSc2nccn2-c2ccc(Cl)cc2)c1,0.424*,-2.03*
CCOC(=O)c1cccc(NC(=O)CS(=O)(=O)Cc2nc(-c3ccc(C)cc3)oc2C)c1,1.05,0.114
COc1ccccc1Nc1ncc(C(=O)N2CCN(c3ccc(F)cc3)CC2)c2ccccc12,0.976,-0.192
COc1nnc(-c2ccc(N3CCOCC3)c(NC(=O)c3ccc(C)cc3)c2)c2ccccc12,0.839,-3.6
CCc1ccc(NC(=O)C2=CCN(S(=O)(=O)c3ccc(Br)cc3)CC2)cc1,1.04,1.47
Cc1ccccc1-n1c(=O)cc(N2CCN(c3ccccc3F)CC2)[nH]c1=O,1.09,1.49
CCOc1ccc(-n2ccnc2SCC(=O)Nc2ccc3c(c2)OCO3)cc1,0.525,-0.629
CCOC(=O)CSc1nnc(Cc2cc(=O)[nH]c(=O)[nH]2)n1-c1cc(C)ccc1C,1.03,0.0586
Cc1cc(N2CCCCC2)nc2ccc(NC(=O)CCC(=O)N3CCN(c4ccc(F)cc4)CC3)cc12,1.05,0.868
CCN(CC)CCNC(=O)c1ccc2c(c1)ncn2C1CCCCC1,1,-0.0038
# More structures follow.
SMILES,CBX7 AlphaScr,CBX7 AlphaScr z-score
CNC(=O)C1CC(O)CN1C(=O)Oc1ccccc1 (configuration not stated),1.01,0.0914
CSc1ccc(CN2C(=O)c3ccccc3Sc3ccc(C(=O)NCc4cccnc4)cc32)cc1,0.814,-2.84
CCCCN(CC)CCCNC(=O)c1cc2sc(Cl)cc2n1C,1.04,1.56
CC(Oc1ccccc1)C(=O)Nc1c2c(nn1-c1cccc(Cl)c1)CS(=O)(=O)C2 (configuration not stated),1.02,0.145
COc1ccc(-c2csc(NCc3c(O)ccc4ccccc34)n2)cc1Br,0.99,-0.339
O=C1c2[nH]nc(-c3ccccc3)c2C(c2ccc(Cl)cc2)N1c1cccc(C(F)(F)F)c1 (configuration not stated),0.828,-4.26
O=C(NCc1ccccn1)C1C2C=CC3(CN(Cc4ccccc4Cl)C(=O)C13)O2 (configuration not stated),0.9,-4.72
CN1CCN(C(=O)C23CCC(C)(C(=O)C2)C3(C)C)CC1 (configuration not stated),1.06,1.63
CCC1=Nc2cc(C(=O)N3CCC(Cc4ccccc4)CC3)ccc2Sc2ccccc21,0.91,-1.44
CCc1ccc(NC(=O)N(CCCN2CCOCC2)Cc2cccnc2)cc1,1.06,0.0622
CCc1c(C)nc2c(-c3ccccc3)c(C)[nH]n2c1=O,1.27,2.57
O=C(CNC(=O)Cn1ccc2ccccc2c1=O)NCCCN1CCCCCC1,1.98,8.34
O=C(C1CCN(S(=O)(=O)c2ccccc2)CC1)N1CCc2ccccc2C1,1.04,1.11
CCCCN(CC)S(=O)(=O)c1ccc2[nH]c(=O)cc(C(=O)NCc3cccc(OC)c3)c2c1,1.16,1.77
COc1cccc(-n2c(SCC(=O)NCC3CCCO3)nnc2-c2c[nH]c3ccccc23)c1 (configuration not stated),1.01,0.0731
Cc1cccc2nc(-c3ccc(N4CCOCC4)cc3)c(Nc3ccc4c(c3)OCO4)n12,0.733,-4.38
Cc1ccc(-c2n[nH]c(=O)c3ccccc23)cc1S(=O)(=O)N(C)C1CCCCC1,0.997,-0.0246
Cc1ccc(-c2cc(C(=O)NCc3ccc(S(N)(=O)=O)cc3)c3ccccc3n2)cc1,1.02,0.557
CC1(C(=O)NC2CCCC2)CCC(=O)N1Cc1cccs1 (configuration not stated),0.915,-1.38
CCN(CC)CCCNC(=O)CN1C(=O)CCSc2ccccc21,1.05,2.16
O=C(NCc1ccc(F)cc1)C1CC(=O)N(C2CCCCCC2)C1 (configuration not stated),1.03,0.734

# A portion of the library. The share of hits here may be higher or lower than overall.
